Assay outcomes: PubChem BioAssay, Broad Institute
NOMO-1 viab = STK33 inhibitor candidate reducing NOMO-1 cell viability | inhibition, % (concentration not given with the values) | NOMO-1 AML viability, CellTiter-Glo luminescence, 72 h | 7.5% of 37,000 active;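 active means most replicates above 80%; inconclusive means exactly half above 80%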;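 further: wells of about 30 µL received 25 nL stock; 0% = median of vehicle wells and 100% = reference inhibitor level; the first replicate is given; inactives centre near 10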
Starred values were filed as active, the others as inactive; ? = inconclusive.

SMILES	NOMO-1 viab
CC(C#N)(Nc1ccccc1)c1ccc(F)cc1 (configuration not stated)	27
C[C@H](CO)N1C[C@H](C)[C@H](CN(C)C(=O)Nc2cccc3ccccc23)Oc2ccc(NS(C)(=O)=O)cc2C1=O	5
COC(=O)c1cc(NC(=O)CSc2ccccn2)cc(C(=O)OC)c1	47
Cc1noc(C)c1NC(=O)N(C)C[C@H]1OCCCC[C@@H](C)Oc2ccc(NS(=O)(=O)c3c(C)noc3C)cc2C(=O)N([C@H](C)CO)C[C@@H]1C	-5
CCn1c(SCC(=O)Nc2ccccc2-c2ccccc2)nnc1-c1cccs1	-15
CCOC(=O)c1cnc2ccc(OCC)cc2c1N1CCN(c2ccccc2)CC1	67
C[C@H](CO)N1C[C@H](C)[C@H](CN(C)Cc2ccc(C(F)(F)F)cc2)Oc2c(NC(=O)Nc3ccc(F)cc3)cccc2C1=O	69
COc1ccccc1NC(=O)CSc1nc(-c2ccc(C)cc2)nc2c1COC(C)(C)C2	50
Cc1noc(C)c1S(=O)(=O)Nc1ccc2c(c1)C(=O)N([C@H](C)CO)C[C@H](C)[C@@H](CN(C)Cc1ccncc1)O2	0
C[C@H]1CN([C@@H](C)CO)C(=O)Cc2cc(NC(=O)CCC(F)(F)F)ccc2O[C@H]1CN(C)CC1CCCCC1	1
CNC[C@@H]1Oc2ccc(NC(=O)Nc3ccc(C(F)(F)F)cc3)cc2C(=O)N([C@@H](C)CO)C[C@@H]1C	-17
O=C(COc1ccc(C(=O)Nc2ccccc2Cl)cc1)Nc1cc(Cl)cc(Cl)c1	16
CSc1ccc(C2N[C@@H](C(=O)O)C(C)(C)S2)cc1 (some centres not stated)	-7
Cc1ccc(S(=O)(=O)N(C)C[C@@H]2Oc3ccc(NC(=O)Nc4cccc5ccccc45)cc3C(=O)N([C@@H](C)CO)C[C@H]2C)cc1	5
CC(C)c1ccc(NC(=O)CN(C)S(=O)(=O)c2ccccc2)cc1	26
COc1ccc(OC)c(S(=O)(=O)Nc2ccc(C(N)=O)cc2)c1	1
Cc1ccc(OCC(=O)Nc2nc(C)cc(C)n2)cc1	2
C[C@H]1CN([C@@H](C)CO)C(=O)Cc2cc(NC(=O)Cn3cnnn3)ccc2O[C@@H]1CN(C)Cc1ccc(C(=O)O)cc1	-1
Cc1noc(C)c1NC(=O)Nc1ccc2c(c1)CC(=O)N([C@H](C)CO)C[C@@H](C)[C@@H](CN(C)Cc1ccc3c(c1)OCO3)O2	-2
C[C@@H]1CN([C@@H](C)CO)C(=O)Cc2cc(NC(=O)Nc3cccc4ccccc34)ccc2O[C@@H]1CN(C)C	43
Cc1ccc(S(=O)(=O)Nc2ccc3c(c2)C(=O)N([C@@H](C)CO)C[C@H](C)[C@@H](CN(C)Cc2ccc4c(c2)OCO4)O3)cc1	25
COc1cc(C(C)/C=C(/C)CC(=O)O)oc(=O)c1C (configuration not stated)	4
COc1ccc(CN(C)C[C@H]2Oc3ccc(NC(=O)Nc4cccc5ccccc45)cc3C(=O)N([C@@H](C)CO)C[C@H]2C)cc1	40
Cc1cccc(NC(=O)c2ccc(C)c(S(=O)(=O)N3CCCC3)c2)c1	38
C[C@@H]1CCCCO[C@H](CN(C)C(=O)C2CCCCC2)[C@@H](C)CN([C@H](C)CO)C(=O)c2cc(NC(=O)CCCCCC(=O)Nc3ccccc3N)ccc2O1	10
COc1ccc(CN(C)C[C@@H]2Oc3c(NC(=O)NC(C)C)cccc3C(=O)N([C@H](C)CO)C[C@@H]2C)cc1	16
Cc1ccc(S(=O)(=O)Nc2ccc3c(c2)CC(=O)N([C@@H](C)CO)C[C@H](C)[C@@H](CN(C)C(=O)Nc2ccc4c(c2)OCO4)O3)cc1	-8
C[C@H](CO)N1C[C@H](C)[C@H](CN(C)C(=O)Nc2ccc3c(c2)OCO3)Oc2ccc(NC(=O)CCCCCC(=O)Nc3ccccc3N)cc2CC1=O	26
C[C@@H]1CN([C@H](C)CO)C(=O)c2cc(NC(=O)CCC(F)(F)F)ccc2O[C@H]1CN(C)Cc1ccc(Cl)c(Cl)c1	51
C[C@@H]1CN([C@@H](C)CO)C(=O)c2cccc(NC(=O)C3CC3)c2O[C@@H]1CN(C)C(=O)NC1CCCCC1	7
COC(=O)c1c(NC(=O)COc2ccccc2)sc(C(N)=O)c1C	20
O=c1[nH]c2ccccc2nc1/C=C(/O)c1cccc2ccccc12	55
COc1ccc(NC(=O)Nc2ccc3c(c2)C(=O)N([C@H](C)CO)C[C@H](C)[C@@H](CN(C)C(=O)Nc2ccc4c(c2)OCO4)OCCCC[C@@H](C)O3)cc1	-2
C[C@@H]1CCCCO[C@H](CN(C)C(=O)c2ccccc2)[C@@H](C)CN([C@H](C)CO)C(=O)c2cc(NS(=O)(=O)c3cccs3)ccc2O1	10
C[C@H](CO)N1C[C@H](C)[C@H](CN(C)C(=O)Nc2ccc(F)cc2)Oc2ccc(NC(=O)Cc3ccccc3)cc2C1=O	20
NC(=O)C1C2CCC(C2)C1C(=O)c1ccccc1 (configuration not stated)	5
CCn1c(SCc2cccc(OC)c2)nnc1-c1cccnc1	-23
CC(C)NC(=O)Nc1ccc2c(c1)CC(=O)N([C@H](C)CO)C[C@H](C)[C@H](CN(C)Cc1ccc(C(F)(F)F)cc1)O2	32
C[C@H]1[C@H](C)CC[C@]2(C(=O)O)CC[C@]3(C(=O)O)C(=CCC4[C@@]5(C)CC[C@H](O[C@@H]6O[C@@H](C)[C@H](O)[C@@H](O)[C@H]6O)C(C)(C)C5CC[C@]43C)[C@H]12 (some centres not stated)	17
O=C1CCCC2=C1C(c1ccccc1Cl)N=C(Nc1nc3ccccc3s1)N2 (configuration not stated)	116*
O=C(Nc1cnn(C23CC4CC(CC(C4)C2)C3)c1)C1CC(c2ccc(Cl)c(Cl)c2)=NO1 (configuration not stated)	20
Cc1noc(C)c1NC(=O)Nc1cccc2c1O[C@@H](CN(C)CC1CCCCC1)[C@H](C)CN([C@@H](C)CO)C2=O	-8
C[C@H]1CN([C@@H](C)CO)C(=O)c2cccc(NC(=O)C3CCCCC3)c2O[C@@H]1CN(C)S(=O)(=O)c1ccc(Cl)cc1	26
COc1ccc(S(=O)(=O)N(C)C[C@@H]2Oc3ccc(NS(C)(=O)=O)cc3CC(=O)N([C@H](C)CO)C[C@@H]2C)cc1	26
Nc1nncn1C(=O)CCCOc1ccccc1	14
Cc1noc(C)c1NC(=O)N(C)C[C@H]1Oc2ccc(N(C)C)cc2C(=O)N([C@H](C)CO)C[C@@H]1C	-3
COc1ccc(NC(=O)N(C)C[C@H]2Oc3c(NC(=O)Nc4ccc(C(F)(F)F)cc4)cccc3C(=O)N([C@@H](C)CO)C[C@H]2C)cc1	88*
COc1ccc(NC(=O)Nc2cccc3c2O[C@@H](CN(C)Cc2ccc(Cl)c(Cl)c2)[C@@H](C)CN([C@H](C)CO)C3=O)cc1	97*
Cn1c(SCC(=O)Nc2cccc3ccccc23)nnc1-c1cccs1	7
C[C@H](CO)N1C[C@H](C)[C@H](CN(C)Cc2ccc(-c3ccccc3)cc2)Oc2ccc(NS(C)(=O)=O)cc2C1=O	19
CC(C)NC(=O)Nc1ccc2c(c1)C(=O)N([C@H](C)CO)C[C@H](C)[C@@H](CN(C)C(=O)CCC(F)(F)F)OCCCC[C@@H](C)O2	3
COc1ccc2c(C)c(CCC(=O)O)c(=O)oc2c1C	17
Cn1nnnc1SCC(=O)Nc1cccc(C(=O)O)c1	-15
O=C(CSCCO)Nc1cccc2ccccc12	-2
C[C@H]1CN([C@@H](C)CO)C(=O)c2cc(NS(=O)(=O)c3ccc(F)cc3)ccc2O[C@H]1CN(C)Cc1ccc(C(F)(F)F)cc1	37
Cc1noc(C)c1NC(=O)N(C)C[C@H]1Oc2c(NS(=O)(=O)c3ccccc3)cccc2C(=O)N([C@H](C)CO)C[C@H]1C	-7
CC(C)NC(=O)N(C)C[C@@H]1Oc2ccc(NC(=O)Nc3ccccc3)cc2C(=O)N([C@H](C)CO)C[C@@H]1C	7
C[C@@H]1CN([C@@H](C)CO)C(=O)Cc2cc(NC(=O)Cc3cn(C)c4ccccc34)ccc2O[C@@H]1CN(C)S(C)(=O)=O	1
COc1ccc(C(=O)NCCc2nc3ccccc3[nH]2)cc1OC	53
Cc1c(Br)c([N+](=O)[O-])nn1CC(=O)NCc1ccccn1	23

Additional records follow:
SMILES	NOMO-1 viab
O=C(c1ccc(Cl)cc1)N1CCN(c2ccc([N+](=O)[O-])c(NCc3ccccn3)c2)CC1	1
CC(Sc1nc(N)c2c3c(sc2n1)COC(C)(C)C3)C(=O)Nc1ccccc1 (configuration not stated)	?
C[C@H](CO)N1C[C@H](C)[C@@H](CN(C)C)Oc2ccc(NS(=O)(=O)c3ccc(F)cc3)cc2C1=O	17
O=S(=O)(Cc1ccc(Cl)cc1)NCc1ccccn1	11
C[C@@H]1CCCCO[C@H](CN(C)C(=O)CCCN(C)C)[C@@H](C)CN([C@H](C)CO)C(=O)c2cc(NC(=O)CCC(F)(F)F)ccc2O1	8
CNC[C@H]1Oc2c(NS(=O)(=O)c3ccc(OC)cc3)cccc2C(=O)N([C@H](C)CO)C[C@H]1C	21
C[C@H]1CN([C@@H](C)CO)C(=O)Cc2cc(NC(=O)c3ccncc3)ccc2O[C@@H]1CN(C)Cc1ccc(-c2ccccc2)cc1	19
CC(C)NS(=O)(=O)c1ccc(OCC(=O)O)cc1	-5
Cc1ccc(N(C(C)C(=O)Nc2cc(C)cc(C)c2)S(C)(=O)=O)cc1 (configuration not stated)	1
Cc1ccc(NC(=O)CC(c2ccccc2)c2ccccc2)cc1C	41
OCc1nnn(-c2ccc(Br)cc2)c1CO	24
COc1cccc(NC(=O)CSc2nc3ccccc3n2C)c1	-11
CC(C)NC(=O)Nc1ccc2c(c1)CC(=O)N([C@H](C)CO)C[C@@H](C)[C@@H](CN(C)S(=O)(=O)c1ccc(F)cc1)O2	3
CCOc1ccc(Nc2ncnc3c2ncn3-c2ccc(OCC)cc2)cc1	5
C[C@H]1CN([C@@H](C)CO)C(=O)c2cccc(NC(=O)C3CCOCC3)c2O[C@H]1CN(C)C(=O)Nc1ccccc1	-18
COc1ccc(NC(=O)Nc2ccc3c(c2)C(=O)N([C@H](C)CO)C[C@H](C)[C@@H](CN(C)S(=O)(=O)c2ccccc2)O3)cc1	6
Cc1c(NC(=O)CN(c2ccc(Br)cc2)S(C)(=O)=O)cccc1[N+](=O)[O-]	12
O=c1cc(-c2ccccc2)n(-c2ccccc2)cn1	101*
C[C@H]1CN([C@@H](C)CO)C(=O)c2cc(NC(=O)c3ccncc3)ccc2O[C@H]1CN(C)Cc1ccc(-c2ccccc2)cc1	1
Cc1noc(C)c1NC(=O)N(C)C[C@@H]1Oc2ccc(NC(=O)Nc3ccc(F)cc3)cc2C(=O)N([C@@H](C)CO)C[C@H]1C	-4
C[C@H]1CN([C@@H](C)CO)C(=O)c2cc(NS(C)(=O)=O)ccc2O[C@H]1CN(C)C	-9
C[C@@H]1CN([C@@H](C)CO)C(=O)c2cc(NC(=O)C3CC3)ccc2O[C@@H]1CN(C)Cc1ccc(-c2ccccc2)cc1	36
CC(C)(C)NS(=O)(=O)c1ccc(NC(=O)CSc2nc3ccccc3[nH]2)cc1	14
CCOc1ccccc1Nc1nc(N)nc(CN(C)C2CCCCC2)n1	12
COc1ccc(CN(C)C[C@H]2Oc3c(NS(C)(=O)=O)cccc3C(=O)N([C@H](C)CO)C[C@@H]2C)cc1	20
NC(=S)NN1C2CSC1CS2	27
C=C(C)[C@@H]1CC[C@]2(C(=O)O)CC[C@]3(C)[C@H](CCC4[C@@]5(C)CCC(=O)C(C)(C)C5C(O)C[C@]43C)C12 (some centres not stated)	104*
C[C@H](CO)N1C[C@H](C)[C@@H](CN(C)Cc2ccncc2)Oc2ccc(NC(=O)CCCCCC(=O)Nc3ccccc3N)cc2C1=O	-17
CC(=O)c1cccc(NC(=S)NCc2cccnc2)c1	15
C[C@H]1CN([C@@H](C)CO)C(=O)Cc2cc(NS(=O)(=O)c3cccs3)ccc2O[C@@H]1CN(C)C(=O)Nc1cccc2ccccc12	28

Laid out differently: 16 of the compounds above.
SMILES,NOMO-1 viab
COc1cccc(NC(=O)CSc2nc3ccccc3n2C)c1,-11
CC(C)NC(=O)Nc1ccc2c(c1)CC(=O)N([C@H](C)CO)C[C@@H](C)[C@@H](CN(C)S(=O)(=O)c1ccc(F)cc1)O2,3
CCOc1ccc(Nc2ncnc3c2ncn3-c2ccc(OCC)cc2)cc1,5
C[C@H]1CN([C@@H](C)CO)C(=O)c2cccc(NC(=O)C3CCOCC3)c2O[C@H]1CN(C)C(=O)Nc1ccccc1,-18
COc1ccc(NC(=O)Nc2ccc3c(c2)C(=O)N([C@H](C)CO)C[C@H](C)[C@@H](CN(C)S(=O)(=O)c2ccccc2)O3)cc1,6
Cc1c(NC(=O)CN(c2ccc(Br)cc2)S(C)(=O)=O)cccc1[N+](=O)[O-],12
O=c1cc(-c2ccccc2)n(-c2ccccc2)cn1,101*
C[C@H]1CN([C@@H](C)CO)C(=O)c2cc(NC(=O)c3ccncc3)ccc2O[C@H]1CN(C)Cc1ccc(-c2ccccc2)cc1,1
Cc1noc(C)c1NC(=O)N(C)C[C@@H]1Oc2ccc(NC(=O)Nc3ccc(F)cc3)cc2C(=O)N([C@@H](C)CO)C[C@H]1C,-4
C[C@H]1CN([C@@H](C)CO)C(=O)c2cc(NS(C)(=O)=O)ccc2O[C@H]1CN(C)C,-9
C[C@@H]1CN([C@@H](C)CO)C(=O)c2cc(NC(=O)C3CC3)ccc2O[C@@H]1CN(C)Cc1ccc(-c2ccccc2)cc1,36
CC(C)(C)NS(=O)(=O)c1ccc(NC(=O)CSc2nc3ccccc3[nH]2)cc1,14
CCOc1ccccc1Nc1nc(N)nc(CN(C)C2CCCCC2)n1,12
COc1ccc(CN(C)C[C@H]2Oc3c(NS(C)(=O)=O)cccc3C(=O)N([C@H](C)CO)C[C@@H]2C)cc1,20
NC(=S)NN1C2CSC1CS2,27
C=C(C)[C@@H]1CC[C@]2(C(=O)O)CC[C@]3(C)[C@H](CCC4[C@@]5(C)CCC(=O)C(C)(C)C5C(O)C[C@]43C)C12 (some centres not stated),104*

Not all compounds are listed, so the mix of outcomes need not match the whole.
